High-throughput results from PubChem.
RecA splice inh: Mtb RecA intein splicing inhibitors, primary screen, biochemical, fluorescence, HTS; Protein RecA (Mycobacterium tuberculosis (strain ATCC 25618 / H37Rv)), P9WHJ3; cell-free RecA intein splicing; inhibition, %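 (about 9 µM by stock and volumes)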; AID 2221, 2009; 290,000 compounds, 0.75% hits; in the data active = inhibition above about 30%; inconclusive = no clear call, values can overlap the other calls;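 note: 0% = vehicle wells and 100% = reference inhibitor control wells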
Target sequence (P9WHJ3 whole entry, looked up, canonical isoform): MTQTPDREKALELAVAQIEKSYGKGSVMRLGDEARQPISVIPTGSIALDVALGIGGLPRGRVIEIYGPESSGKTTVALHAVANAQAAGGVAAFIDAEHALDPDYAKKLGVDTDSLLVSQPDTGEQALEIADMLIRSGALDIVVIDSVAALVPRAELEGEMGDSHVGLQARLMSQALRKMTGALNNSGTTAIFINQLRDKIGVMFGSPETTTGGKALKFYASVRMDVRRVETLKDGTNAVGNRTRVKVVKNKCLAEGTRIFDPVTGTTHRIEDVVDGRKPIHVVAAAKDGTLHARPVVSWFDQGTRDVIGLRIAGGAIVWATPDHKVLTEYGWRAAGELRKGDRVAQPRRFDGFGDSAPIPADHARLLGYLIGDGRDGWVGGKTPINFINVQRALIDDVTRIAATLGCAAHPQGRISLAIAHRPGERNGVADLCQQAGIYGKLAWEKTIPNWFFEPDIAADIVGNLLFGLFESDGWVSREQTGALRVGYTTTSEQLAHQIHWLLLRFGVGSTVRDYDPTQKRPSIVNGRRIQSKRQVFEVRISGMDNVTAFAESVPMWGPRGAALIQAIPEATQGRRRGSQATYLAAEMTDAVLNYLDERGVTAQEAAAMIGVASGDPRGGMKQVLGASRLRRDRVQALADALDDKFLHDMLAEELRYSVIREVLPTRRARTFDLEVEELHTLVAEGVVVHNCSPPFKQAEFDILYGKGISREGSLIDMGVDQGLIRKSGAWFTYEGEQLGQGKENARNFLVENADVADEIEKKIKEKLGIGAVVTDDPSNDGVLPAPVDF
Mtb H37Rv: M. tuberculosis H37Rv growth inhibitors, H37Rv strain (AID 1626); M. tuberculosis H37Rv growth inhibition; higher % means a stronger effect; one-dose inhibition, % at 10 µM; IC50 in µM for titrated hits; 220,000 compounds, 0.95% hits;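 active = confirmed in a dose series; inconclusive = inhibition above 80% but not taken into the dose series; inactive = below 80% or under 30% at every dose of the series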;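 note: bacteria incubated seven days before Alamar blue readout; 0% = bacteria only wells and 100% = bacteria with antibiotic wells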
Arbovirus inh: antivirals against arbovirus infection, primary screen, cell-based, full library, 10K replicate subset. arbovirus infection cell-based antiviral screen. inhibition, % at 10 µM. 200,000 compounds, 0.37% hits;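 active = inhibition from about 30%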;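 note: bluetongue infection of BSR cells; cell survival read as ATP light after 72 h; 0% = infected wells without compound and 100% = uninfected wells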
Mtb bLac sens: beta-lactam sensitization of Mtb H37Rv, H37Rv. M. tuberculosis H37Rv growth with meropenem, percent inhibition; hits of this screen are not shown here. inhibition, % at 25 µM. 330,000 compounds, 0.27% hits. AID 434955, 2010;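 active = about 74% or more and at least 40 points above the plate without the antibiotic, then above 30% in a dose series; inconclusive = first-round hits that could not be retested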;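 note: growth measured after seven days incubation then overnight dye step; 0% = bacteria only wells and 100% = bacteria with antibiotic; twin plates without the antibiotic show which effects depend on it; some results filed as inactive read as strong as hits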
YopH inh: YopH tyrosine phosphatase inhibitors, primary screen, biochemical, fluorescence Ex485/Em525; YopH tyrosine phosphatase [Yersinia enterocolitica]; 140,000 compounds, 0.16% hits; inhibition, %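 (about 10 µM by stock and volumes)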;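 active = inhibition of 50% or more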;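 note: controls were vehicle for no effect and minimum signal wells for full effect; inactives centre near -20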
Arbovirus inh repeat: further read-out of Arbovirus inh, marked with its call; inhibition, %; measured here: 10K subset replicate screen; many hits read low in the repeat;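 first of two repeat runs on a subset; 0% = infected and 100% = uninfected wells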
* hit, by the source's call; ? = inconclusive; / = not tested or not shown.

SMILES	RecA splice inh	Mtb H37Rv	Arbovirus inh	Mtb bLac sens	YopH inh	others
COc1ccccc1N1CCSC1C(N)=O (stereo unspecified)	-2.0	1%	5	0	-7
O=C(NC1CCN(C(=O)N2CCOCC2)CC1)c1ccccc1	3.4	-10%	0	-4	-51
CC(C)c1ccccc1NC(=O)Nc1ccc2c(c1)OCO2	1.9	/	/	?	/
CCN1C(=O)C(CC(=O)Nc2cccc(C(C)=O)c2)S/C1=N\c1ccccn1 (stereo unspecified)	-1.1	-4%	3	-8	-21
CC(C)C(=O)N1CCN(c2ccccc2N)CC1	0.3	-1%	-1	-3	-34	Arbovirus inh repeat=5
Cc1onc(-c2c(Cl)cccc2Cl)c1C(=O)c1c[nH]c(C(=O)NCC2CCCO2)c1 (stereo unspecified)	1.4	-2%	8	3	/
C=CCN(c1ccccc1)S(=O)(=O)c1cccc(C(=O)NCc2ccncc2)c1	1.6	/	/	-5	/
COc1ccc(NC(=O)NC2(C(=O)N3CCCCCC3)CCCCC2)cc1	-0.9	-3%	-2	-11	-43
COc1cc(OC)cc(C(=O)NCCSC2CCCCC2)c1	3.6	5%	-3	2	/
CCCNc1c(F)c(F)c2c(C)c3ccccc3nc2c1F	-6.2	10%	0	20	-28
COCCSc1nnc(NC(=O)CSc2ccccc2)s1	-0.8	31%	0	-5	-20
C[C@@H](NCCc1ccc(O)cc1)[C@@H](O)c1ccc(O)cc1	-0.1	-12%	/	-1	/
CC(=O)N/C(=N/c1nc(C)cc(C)n1)Nc1ccc(NC(C)=O)cc1	-0.8	-6%	3	-9	-26
O=C(Cc1ccccc1)NN1C(=O)/C(=C/c2ccccc2C(=O)O)SC1=S	0.4	1%	-2	-5	/
CCc1ccc(N2CC(C(=O)Nc3ccc(S(=O)(=O)N4CCCCC4)cc3)CC2=O)cc1 (stereo unspecified)	0.2	/	/	-3	/
COc1cccc(N2C(=O)NC(=O)/C(=C/c3ccc4c5c(cccc35)CC4)C2=O)c1	-3.9	-6%	-3	2	1
COc1ccccc1C(c1nnnn1C(C)(C)C)N1CCN(Cc2ccccc2)CC1 (stereo unspecified)	-0.5	2%	0	-8	-16
CC(SCc1cn2cc(Cl)ccc2n1)C(=O)O (stereo unspecified)	5.1	-8%	2	-8	-112
Cc1c(NC(=O)c2noc(C(C)C)c2[N+](=O)[O-])c(=O)n(-c2ccccc2)n1C	-3.1	-2%	6	0	-35
Cc1c(-c2cccc(Cl)c2)nc2ccccc2c1C(=O)N1CCC2(CC1)OCCO2	2.6	/	/	-5	/
CCOC(=O)C1CCN(C(c2cc3ccc(C)c(C)c3[nH]c2=O)c2nnnn2C2CCCCC2)CC1 (stereo unspecified)	0.3	-1%	7	41	-44
COc1ccc(NC(=O)CC2C(=O)N(c3cccc(C)c3)C(=O)N2C2CCCCC2)cc1 (stereo unspecified)	/	8%	1	0	-9
C=CCOc1c(Br)cc(CNc2ccc(NC(=O)C(C)C)c(OC)c2)cc1OCC	-4.3	6%	0	7	-5
CCCSc1nc2cc(OC)c(OC)cc2c(=N)n1CCCN1CCOCC1	11	3%	-15	-6	/
CS(=O)(=O)Nc1ccc(S(=O)(=O)NC2CCCCC2)cc1	-0.2	-1%	2	0	/

The last three entries of the section before lead into the next.
SMILES	RecA splice inh	Mtb H37Rv	Arbovirus inh	Mtb bLac sens	YopH inh	others
C=CCOc1c(Br)cc(CNc2ccc(NC(=O)C(C)C)c(OC)c2)cc1OCC	-4.3	6%	0	7	-5
CCCSc1nc2cc(OC)c(OC)cc2c(=N)n1CCCN1CCOCC1	11	3%	-15	-6	/
CS(=O)(=O)Nc1ccc(S(=O)(=O)NC2CCCCC2)cc1	-0.2	-1%	2	0	/
COc1ccc(-c2cn(-c3ccc(C)cc3C)c(=S)[nH]2)cc1OC	-0.7	/	/	-2	/
Oc1cccc(NC(=S)Nc2cccnc2)c1	-5.4	-2%	-2	-2	-23
CCOc1ccc(OCC)c(S(=O)(=O)N2CCCCC2)c1	/	-1%	2	-24	-29
COc1cccc(C(=O)Nc2ccc3nc4n(c(=O)c3c2)CCCC4)c1	-2.4	/	/	-3	/
CCN(CC)S(=O)(=O)c1ccc(C(=O)NCc2n[nH]c(=S)n2-c2ccc(Cl)c(Cl)c2)cc1	1.3	0%	-3	-3	/
COc1ccc(C2=NOC3(CC(=O)N(c4ccc(C)cc4)C3=O)C2)cc1 (stereo unspecified)	-2.5	-6%	11	-1	-14
Cc1ccc(S(=O)(=O)NCC(c2cccnc2)N2CCN(Cc3ccccc3)CC2)cc1 (stereo unspecified)	2.9	/	/	-14	/
CCn1cc(/C=C/C(=O)c2ccc(O)cc2)c(C)n1	1.4	7%	-2	-8	/
C=CCn1c(=O)c(C(=O)Nc2cccnc2)c(O)c2ccccc21	0.9	3%	8	1	-21
COc1cc(C(=O)OCC(=O)Nc2cccc(S(=O)(=O)N3CCOCC3)c2)ccc1OCC(C)C	2.0	/	/	-5	/
CN(CC(=O)Nc1ccccc1Cl)C(=O)COC(=O)/C=C/c1ccccc1	-3.1	/	/	1	/
Cc1cc(=O)[nH]c(/N=C(\N)Nc2cccc3ccccc23)n1	-0.6	21%	4	1	-27
CCOc1ccc2nc(NC(=O)C3CCN(c4cnccn4)CC3)sc2c1	-1.9	5%	-30	95	-52
O=C(c1cc2cc(Cl)ccc2oc1=O)N1CCOCC1	0.2	0%	-1	-9	-32
CCOc1ccc(N2C(=O)CC(SCc3nc4ccccc4[nH]3)C2=O)cc1 (stereo unspecified)	0.4	5%	2	-9	/
CCn1ccc(C(=O)Nc2cccc(Cl)c2)n1	-0.8	-3%	-1	5	/
COc1ccc(CCNS(=O)(=O)c2ccc(-c3ccc(=O)[nH]n3)o2)cc1OC	-4.9	/	/	-2	/
Cc1cc(C)c2c(N)c(C(=O)NCC3CCCCC3)sc2n1	-12	-3%	1	1	-3
COC(=O)c1sc(S(=O)(=O)NCc2ccccc2)c(C(=O)OC)c1C	-0.7	-2%	-3	-11	0
O=C(NCCCn1ccnc1)C1c2ccccc2Oc2ccccc21	17	2%	-2	5	-28
O=C1NCCCCC1NS(=O)(=O)c1ccccc1 (stereo unspecified)	0.8	/	/	-5	/
O=C(N/N=C\C=C\c1ccco1)c1cncc(Br)c1	0.9	-5%	/	99	/
N/C(=N\N=C\c1ccco1)SC1CC(=O)N(c2ccccc2)C1=O (stereo unspecified)	3.0	-8%	-2	2	/
CC(C)CNC(=O)C1CCN(S(=O)(=O)c2ccc3c(c2)OCCO3)CC1	-0.7	/	/	-16	/
CCN(CC)Cc1csc(C(N)=O)c1	2.1	9%	1	7	-21

Structures above with a COOH group, in the order listed:
SMILES	RecA splice inh	Mtb H37Rv	Arbovirus inh	Mtb bLac sens	YopH inh	others
O=C(Cc1ccccc1)NN1C(=O)/C(=C/c2ccccc2C(=O)O)SC1=S	0.4	1%	-2	-5	/
CC(SCc1cn2cc(Cl)ccc2n1)C(=O)O (stereo unspecified)	5.1	-8%	2	-8	-112

Returning to the listing with the 2 entries that preceded the break.
SMILES	RecA splice inh	Mtb H37Rv	Arbovirus inh	Mtb bLac sens	YopH inh	others
CC(C)CNC(=O)C1CCN(S(=O)(=O)c2ccc3c(c2)OCCO3)CC1	-0.7	/	/	-16	/
CCN(CC)Cc1csc(C(N)=O)c1	2.1	9%	1	7	-21
CCOc1ccccc1NC(=O)CCc1ccc(C)o1	-5.0	-3%	6	40	-19
CCN(CC)S(=O)(=O)c1ccc(C(=O)/C=C/c2ccc(-c3ccc([N+](=O)[O-])cc3)o2)cc1	0.2	-5%	/	1	/
CCCn1c(N2CCC(Cc3ccccc3)CC2)nc2c1c(=O)[nH]c(=O)n2C	-4.1	12%	5	62	-45
O=C(COC(=O)CCc1ccccc1)NC12CC3CC(CC(C3)C1)C2	1.8	-2%	-1	-5	/
Cc1ccc(C(=O)NCCc2nnc3ccc(SCC(=O)N4CCCC4)nn23)cc1	1.8	/	/	3	/
O=C(COc1ccccc1)N1CCN=C1SCc1ccccc1	1.4	0%	10	-1	/
CC1Cc2ccccc2N1CC(=O)Nc1ccc2c(c1)OC(F)(F)O2 (stereo unspecified)	7.4	-7%	-20	4	-13
COc1cc(/C=C2\C(=O)NC(=O)N(CCc3ccc(F)cc3)C2=O)ccc1O	-2.8	-6%	-6	3	-33
Cc1ccc(Cn2c(SCCN3CCCCC3)nc3c2c(=O)n(C)c(=O)n3C)cc1	-0.5	-8%	2	-4	-27
O=C(COC(=O)C12CC3CC(CC(Br)(C3)C1)C2)N1CCOCC1	-1.1	-1%	8	1	/
CCOc1cc(/C=C2\C(=O)NC(=O)N(CCc3ccc(F)cc3)C2=O)ccc1O	-0.4	-7%	/	-4	/
CC(Sc1ccsc1[N+](=O)[O-])C(=O)N1CCN(c2ccccn2)CC1 (stereo unspecified)	/	8%	8	-2	/
O=C(CCS(=O)(=O)Cc1ccccc1)N1CCN(c2ccccc2)CC1	0.7	-4%	2	-7	-19
Cc1ccc(C)c(C(=O)Nc2ccncc2)c1	-3.9	/	/	4	/
CCOc1ccc(-n2cc(-c3ccccc3)c3c(SC(C)C(=O)OC)ncnc32)cc1 (stereo unspecified)	2.6	6.4µM*	8	91	-27
COc1ccc(CCNS(=O)(=O)c2cccc3cccnc23)cc1OC	-0.9	5%	/	-3	/
CCOC(=O)c1c(C2COc3ccccc3O2)csc1NC(=O)c1ccco1 (stereo unspecified)	11	47%	-9	59	-23
COc1cccc(/C=C2\SC(=O)N(CCC(=O)N3CCC(C(=O)O)CC3)C2=O)c1	-0.4	/	/	4	/
O=C(Nc1ccc(Cl)cc1)C1CC(=O)n2c(nc3ccccc32)N1 (stereo unspecified)	-5.8	11%	9	-7	/
COc1ccc(C(CCNCc2ccc(OC(C)C)cc2)C(C)C)cc1 (stereo unspecified)	9.1	58%	/	86	/
COc1ccc(/C(C)=N/NC(=O)c2ccc3nc[nH]c3c2)cc1	-0.5	/	/	-1	/
COc1ccc(C2=NN(S(=O)(=O)c3ccccc3)C(c3ccccc3)C2)cc1 (stereo unspecified)	1.0	2%	/	0	/
CCCCc1nnc(NC(=O)CSCc2cc(=O)n3cc(C)sc3n2)s1	-1.5	/	/	-8	/
COC(=O)Nc1ccc(S(=O)(=O)N2c3ccccc3CCC2C)cc1 (stereo unspecified)	3.7	-4%	1	6	-39
O=C(CSc1nnnn1-c1ccccc1)N1CCCc2ccccc21	2.7	7%	-5	-7	-19
SMILES	RecA splice inh	Mtb H37Rv	Arbovirus inh	Mtb bLac sens	YopH inh	others
O=C(CSc1nnc(-c2ccncc2)n1Cc1ccco1)Nc1nc(-c2ccccc2)cs1	2.2	13%	-12	93	6
Cc1ccc(C(=O)O/N=C(\N)c2cccc([N+](=O)[O-])c2)cc1	1.7	?	7	99	2
COC(=O)c1c(CSc2cccc(C)c2)noc1C(=O)NCc1ccco1	-0.1	2%	4	90	-19
O=C(OCC(=O)N1CCCCC1)c1cc(NS(=O)(=O)c2ccc(Cl)c([N+](=O)[O-])c2)ccc1O	2.0	16%	-5	-2	-30
CC(C)c1nnc(NC(=O)C2c3ccccc3Oc3ccccc32)s1	1.2	-3%	3	-3	-2
CCN1CCN(CCCOc2ccc(Cl)cc2Br)CC1	0.1	4%	-27	3	/
Cc1cc(-c2nnc3n2N=C(c2ccc(-c4ccccc4)cc2)CS3)n[nH]1	4.3	65%	-23	47	-49
O=C(COC(=O)C1CCC1)NCc1ccccc1	-0.2	/	/	-4	/
CCOc1ccc(/C=N/NC(=O)C2(O)c3ccccc3-c3ccccc32)cc1	-3.7	-1%	-4	6	-16
CCCN(CCC)C(=O)c1ccc2nc(-c3ccc(OC)c(OC)c3)c(-c3ccc(OC)c(OC)c3)nc2c1	-38	/	/	3	/
Cc1ccc(CNC(=O)c2ccc3c(=O)c(O)c(-c4ccc(C)cc4)[nH]c3c2)cc1	-18	-10%	/	-20	/
Brc1cccc(-c2nnc3sc(CNC4CCCC4)cn23)c1	-4.6	7%	-10	5	-40	Arbovirus inh repeat=-3
CC(C)COc1ccc(C(=O)N(Cc2ccco2)C2CCS(=O)(=O)C2)cc1 (stereo unspecified)	0.8	-7%	5	-15	-31
COc1ccccc1-c1n[nH]c(=S)o1	/	4%	1	-14	-7
Cc1ccc(C)c(N(C(=O)c2snc(C(N)=O)c2N)C(C(=O)NCC2CCCO2)c2ccc(C)o2)c1 (stereo unspecified)	-2.5	/	/	1	/
CC1C(=O)CC(c2ccco2)NC1c1ccco1 (stereo unspecified)	/	-7%	0	/	-19
CCCCN(C)CC(O)Cn1cc(/C=C/C(=O)c2cccs2)c2ccccc21 (stereo unspecified)	-2.9	33%	-29	92	-5
O=C1c2ccccc2C(=O)C1c1ccccc1	-0.5	11%	-16	-2	-19

An excerpt. The share of hits here may be higher or lower than overall.
